Rango-impB inh: inhibitors of Rango-importin beta complex formation; Q14974; Rango CFP/YFP FRET sensor + importin beta, 45 min; Potency, µM (series often up to 92.2 µM), without a hit: top-dose inhibition of complex formation; 340,000 tested, 0.031% active; AID 540263; active = rising FRET ratio curve, often small or poorly fitted; inconclusive = mostly compound fluorescence or quenching in the first reads; inactive = flat curves in all reads;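 note: potency is the fitted concentration of half-maximal effect; 0% = DMSO wells and 100% = buffer wells lacking importin beta; nearly all actives have a fitted effect of over 15% in size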
Target sequence (Q14974 whole entry, looked up): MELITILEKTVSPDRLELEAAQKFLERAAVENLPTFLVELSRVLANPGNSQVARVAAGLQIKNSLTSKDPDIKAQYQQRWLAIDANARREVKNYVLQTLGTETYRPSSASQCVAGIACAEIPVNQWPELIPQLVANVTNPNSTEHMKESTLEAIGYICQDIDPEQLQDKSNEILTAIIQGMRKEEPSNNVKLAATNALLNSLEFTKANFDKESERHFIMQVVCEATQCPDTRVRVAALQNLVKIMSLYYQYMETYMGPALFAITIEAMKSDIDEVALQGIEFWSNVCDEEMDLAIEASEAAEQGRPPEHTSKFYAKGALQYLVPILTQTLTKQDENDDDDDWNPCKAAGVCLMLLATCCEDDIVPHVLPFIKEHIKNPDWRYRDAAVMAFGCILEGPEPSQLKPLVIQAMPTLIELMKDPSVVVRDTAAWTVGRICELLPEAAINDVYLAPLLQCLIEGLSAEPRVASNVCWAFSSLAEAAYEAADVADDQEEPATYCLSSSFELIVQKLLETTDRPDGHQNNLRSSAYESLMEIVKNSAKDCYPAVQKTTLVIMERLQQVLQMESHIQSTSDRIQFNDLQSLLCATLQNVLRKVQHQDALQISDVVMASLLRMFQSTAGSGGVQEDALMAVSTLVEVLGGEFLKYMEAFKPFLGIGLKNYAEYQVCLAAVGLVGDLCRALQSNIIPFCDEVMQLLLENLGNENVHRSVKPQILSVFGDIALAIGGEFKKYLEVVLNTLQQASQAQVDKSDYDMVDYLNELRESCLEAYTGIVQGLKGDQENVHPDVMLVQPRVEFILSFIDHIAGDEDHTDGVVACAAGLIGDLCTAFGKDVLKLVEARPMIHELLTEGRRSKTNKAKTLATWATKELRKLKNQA
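FRET biosensor Rango (snurportin 1 IBB between N-terminal EYFP and C-terminal Cerulean), 50 nM in PBS/1 mM DTT/0.02% Tween-20/0.1% BSA, preincubated 5 min RT with compound; 0.125 microM importin beta added, 45 min RT, CFP/YFP FRET ratio read.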
Rango release inh: inhibition of RanGTP-driven Rango-importin beta dissociation. Biochemical FRET Rango-importin beta, RanGTP-induced dissociation. Potency, µM (highest dose often 46.1 µM), without a hit: at the top dose activity change, negative = inhibition. 340,000 tested, 0.071% active; active means falling FRET ratio curve, often poorly fitted, with flat reads before Ran was added; inconclusive means other falling curves, or compound fluorescence or quenching; inactive means flat or rising ratio curve;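 note: potency is the fitted concentration of half-maximal effect; % of control where 0% means no effect; nearly all actives have a fitted effect of over 45% in size; -100% = wells without RanGTP and RCC1; the record marks most hits as doubtful in a second field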
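FRET read at 45 min, room temperature: inhibitors block the CFP/YFP signal rise when RanGTP (0.6 uM Ran, 2 mM GTP, 0.2 uM RCC1) frees Rango (0.1 uM) from importin beta (0.25 uM). Pre-read after 5 min compound exposure flags interference.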
GLA inh pH 4.5: alpha-galactosidase A (human) inhibition, pH 4.5; P06280; purified enzyme, 4-MU-alpha-Gal fluorescence, pH 4.5; activity change, negative = inhibition, % at 105 µM; 230,000 tested, under 10 active; AID 1467; inconclusive = small, poorly fitted or top-dose-only inhibition, or a rising curve; inactive = flat fitted curve, though single readings scatter; no compound was filed as active;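 note: 0% = full activity with enzyme and -100% = basal without enzyme; dose as in the result columns while the protocol names 77 µM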
miR-21 reporter: raises the signal of a miR-21 reporter | 340,000 tested, under 10 active | AID 2288 | Potency, µM (series often up to 38.3 µM), inactives show at the top dose reporter change, positive = more light | HeLa miR-21 FLuc reporter, luciferase, 48 h; active = well fitted rising curve with a large enough effect; inconclusive = small, poorly fitted or top-dose-only effect; inactive = no such curve, though single readings can be large or run the other way;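 note: % of control where 0% means no effect; miR-21 action dims this reporter so a rising signal means less miR-21 action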
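HeLa cells endogenously expressing miR-21, stably carrying CMV-driven firefly luciferase with a downstream miR-21 binding site, 2000 cells/well. Titrations up to approximately 40 uM, 48 hours; luciferase luminescence read.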
* = called active by the depositor; u = inconclusive; x = no result given; & = joins results of further samples; [ ] = dose if it differs, or a comment.

SMILES	Rango-impB inh	Rango release inh	GLA inh pH 4.5	miR-21 reporter
CCOC(=O)Cn1c2ccc(F)cc2c2nc(C)sc21	-0.8%	0%	2[21.1 µM]	-1%
Cc1ccc(-c2nc(CN3CCCCC3c3cccc(F)c3)c(C)o2)o1 (configuration not stated)	-3.2%	24%	-4	-3%
CCOCCOC(=O)COC(=O)c1ccccc1NC(=O)c1ccccc1	1.5%	-7%	0	-2%
CC(C)=Cc1oc2ccc([N+](=O)[O-])cc2c1N1CCOCC1	-5.8%	1%	-5	-27%
C[C@H]1CCC2[C@](C)(CO)[C@@H](O)CC[C@]2(C)[C@@]12CCC(CO)(CCO)O2 (some centres not stated)	1.8%	-9%	x	-4%
C/C(=N\NS(=O)(=O)c1ccc(Cl)c([N+](=O)[O-])c1)c1cc2ccccc2o1	-2.4%	-9%	2	-1%
Cc1sc[n+](CC(=O)c2ccc(Br)cc2)c1C	-1.7%	9%	x	-5%
COc1cc(NC(=O)Cn2c(=O)n(CC3CCCO3)c(=O)c3ccccc32)cc(OC)c1 (configuration not stated)	0.2%	-4%	-4	-3%&-4%
CN(C)S(=O)(=O)c1ccc(-n2cccc2)cc1	-0.1%	-2%	4	-8%
Cc1ccc(S(=O)(=O)NC(=O)COc2ccccc2)cc1	u	18%	4	2%
S=C(Nc1cccc(Cl)c1Cl)Nn1cnnc1	-1.1%	8%	5	2%
CCN(CC)CCNC(=O)c1cc(-c2cccnc2)nc2ccc(S(=O)(=O)N3CCC(C)CC3)cc12	1.6%	13%	x	-3%
Cc1ccc(Cn2nnc3c(=O)n(CC(=O)NCc4ccc5c(c4)OCO5)cnc32)cc1	-4.4%	0%	5	23%
O=C1OC(Cc2ccccn2)C(O)=C1C1=NCCCCN1 (configuration not stated)	-1.0%	14%	0	-33%
CC1CCN(C(=O)c2ccc(S(=O)(=O)N(C)C)cc2)C(C)C1 (configuration not stated)	0.4%	3%	3	-3%
COc1ccc(S(=O)(=O)N2CCc3ccccc32)cc1C(=O)Nc1cc(S(C)(=O)=O)ccc1Cl	1.2%	0%	x	x
CS(=O)(=O)N(CC(=O)NC1CCCCC1)Cc1ccc(F)cc1	0.3%	-6%	0	1%
Cc1cc(C(=O)NC2CC(C)(C)Cc3c2cnn3-c2ccccc2)n(C)n1 (configuration not stated)	-4.0%	-12%	x	8%
Cc1cc(C)n(CC(=O)N/N=C/c2cccc([N+](=O)[O-])c2)n1	2.8%	5%	-21	5%
O=C(CNC(=O)c1ccc(Br)cc1)N=Nc1c(O)[nH]c2ccc([N+](=O)[O-])cc12	0.6%	-5%	x	1%
O=C(Nc1ccc(F)cc1)c1ccc(-n2ccnc2)nc1	-3.1%	11%	-3	-17%
O=C(CC1NCCNC1=O)Nc1ccc2c(c1)OCO2 (configuration not stated)	0.1%	7%	10	-6%
COc1cc(C(=O)Nc2scc(-c3ccc(Br)cc3)c2C(=O)O)cc(OC)c1OC	-1.7%	11%	x	5%
COCC(=O)N(C)[C@H]1C[C@H]2c3cc(N4CCN(C)CC4)ccc3CCN2C(=O)[C@H]1[C@H](C)O	9.0%	3%	x	x
FC(F)(F)c1ccccc1NC(=S)N1CCN(Cc2ccc3c(c2)OCO3)CC1	0.3%	1%	-5	19%

Only miR-21 reporter, Rango-impB inh and GLA inh pH 4.5 (6 entries from above):
molecule	miR-21 reporter	Rango-impB inh	GLA inh pH 4.5
CCOC(=O)Cn1c2ccc(F)cc2c2nc(C)sc21	-1%	-0.8%	2[21.1 µM]
Cc1ccc(-c2nc(CN3CCCCC3c3cccc(F)c3)c(C)o2)o1 (configuration not stated)	-3%	-3.2%	-4
CCOCCOC(=O)COC(=O)c1ccccc1NC(=O)c1ccccc1	-2%	1.5%	0
CC(C)=Cc1oc2ccc([N+](=O)[O-])cc2c1N1CCOCC1	-27%	-5.8%	-5
C[C@H]1CCC2[C@](C)(CO)[C@@H](O)CC[C@]2(C)[C@@]12CCC(CO)(CCO)O2 (some centres not stated)	-4%	1.8%	x
C/C(=N\NS(=O)(=O)c1ccc(Cl)c([N+](=O)[O-])c1)c1cc2ccccc2o1	-1%	-2.4%	2

In a second layout: results already given.
CCOC(=O)Cn1c2ccc(F)cc2c2nc(C)sc21
  Rango-impB inh = -0.8% | Rango release inh = 0% | GLA inh pH 4.5 = 2[21.1 µM] | miR-21 reporter = -1%

Cc1ccc(-c2nc(CN3CCCCC3c3cccc(F)c3)c(C)o2)o1 (configuration not stated)
  Rango-impB inh = -3.2% | Rango release inh = 24% | GLA inh pH 4.5 = -4 | miR-21 reporter = -3%

Next part.
SMILES	Rango-impB inh	Rango release inh	GLA inh pH 4.5	miR-21 reporter
CCN(C[C@H]1N[C@@](C)(C(=O)OC)[C@H]2C(=O)N(C)C(=O)[C@@H]12)C(=O)c1ccc(F)cc1	10%	22%	x	x
Cc1ccc(S(=O)(=O)NC2CCCCC2)c2nsnc12	-0.5%	15%	2	-15%
CC1CCN(S(=O)C23CC4CC(CC(C4)C2)C3)CC1 (configuration not stated)	2.5%	7%	8	-2%
CCOc1ccc(C(=O)N/N=C/c2cccc3cccnc23)cc1	-0.4%	4%	3	10%
CCOc1ccccc1NC(=O)c1cc(=O)c2ccccc2o1	-1.8%	-2%	x	-1%
Cc1ccccc1CNC(=O)Nc1ccc(Cl)cc1	-4.1%	3%	x	-47%
CCn1c(=O)cc(SCC(=O)N2CCOCC2)c2ccccc21	0.5%	-7%	10	1%
COc1cccc(CNC(=O)CCC2CCCN(C(=O)CCC(F)(F)F)C2)c1 (configuration not stated)	-0.1%	1%	-1	-7%
COc1ccc(CCN(C)c2ccc(S(=O)(=O)N3CCCC3)cc2[N+](=O)[O-])cc1OC	-2.6%	1%	-3	-4%
O=S(=O)(c1cc(Cl)ccc1Cl)N1CCN(c2ccccn2)CC1	-3.8%	3%	x	-5%
O=C(CN1C2=NCCCN2c2ccccc21)c1ccc2c(c1)OCO2	2.6%	-14%	2	-4%
Cc1ccc(CNC(=O)c2cccc3c2C(=O)c2ccc(N4CCOCC4)cc2S3(=O)=O)cc1	u	u	x	x
C=CCN1C(=O)C(CC(=O)O)SC1=Nc1cccc([N+](=O)[O-])c1 (configuration not stated)	1.2%	0%	-11	-2%
C=CC(=O)N1CCCC(Nc2nc(Nc3ccc(N(C)C(=O)CC)cc3C)nc3nc[nH]c23)C1 (configuration not stated)	-1.8%	9%	x	x
O=C(NCCCN1CCOCC1)c1cccc(S(=O)(=O)Nc2cc(Cl)ccc2Cl)c1	-0.7%	-16%	0	1%
CCC(C)Sc1nnc(-c2c[nH]c3ccccc23)n1CCOC (configuration not stated)	-2.7%	-7%	-14	-19%
O=C(CCn1c(=S)[nH]c2cc3c(cc2c1=O)OCO3)NCc1ccc(Cl)cc1	-1.2%	-8%	x	-3%
Cc1nc(N2CCN(c3ccccn3)CC2)c2c(C)c(C(=O)N3CCN(c4cccc(Cl)c4)CC3)sc2n1	3.7%	3%	x	0%
O=C(NC1(N2CCOCC2)CC1)c1ccc(Cl)cc1	-3.0%	18%	1	3%
Cc1ccc2c(c1)CCCN2CC(=O)N(C)c1c(N)n(Cc2ccccc2)c(=O)[nH]c1=O	u	-14%	x	x
C[C@@H](C(=O)NCCc1ccccc1)N1C(=O)N2CCc3c([nH]c4ccccc34)[C@@]2(C)C1=O	-1.8%	-7%	x	13%
COc1cc2c(cc1OC)CN(S(C)(=O)=O)CC2	-6.6%	12%	-7	0%
COC(=O)N/N=C/c1ccccc1Cl	-0.1%	-4%	2	-3%
CCN1CCN(C(=O)c2ccccc2N(C)S(=O)(=O)c2ccc(C)cc2)CC1	0.7%	6%	-1	-2%
O=C(Nc1cc2cc([N+](=O)[O-])ccc2oc1=O)c1cccs1	x	x	2	-19%
COc1ccc(CCNC(=O)CN2CCN(c3ccccc3Cl)CC2)cc1	-2.4%	-1%	-4	-4%
Cc1cccc(Cn2c(N3CCN(C)CC3)nc3c2c(=O)[nH]c(=O)n3C)c1	1.1%	-4%	x	-2%
CC(=O)c1c(C)[nH]c(C(=O)OCC(=O)Nc2ccc(C)cc2[N+](=O)[O-])c1C	-6.6%	1%	1	-1%
Cc1ccc(C(=O)Cn2cncn2)cc1	1.7%	3%	-3	2%
CC(C(=O)Nc1ccc(S(=O)(=O)N2CCCC2)cc1)N1CCc2ccccc2C1 (configuration not stated)	-1.4%	10%	x	x
Nc1nnc(N)c2ccccc12	4.9%	0%	2	2%
COc1ccc(-n2c(SCC(=O)Nc3ccccc3OC)nc(O)c(Cc3ccccc3)c2=O)cc1	4.8%	11%	x	-2%
CCOC(=O)c1c(S(=O)(=O)NCC(=O)N2CCN(c3ccccc3OC)CC2)c(C)n(C)c1C	-1.0%	-2%	x	-2%&8%
CC(=O)N(C)c1ccc(OCC(O)CN(Cc2ccco2)S(=O)(=O)c2ccc(C)cc2)cc1 (configuration not stated)	-0.7%	20%	3	11%
COc1cc(Cl)c(C)cc1NC(=O)CCN1C(=O)NC(C)(C)C1=O	-0.1%	25%	x	x
O=C(COC(=O)CCc1nc2ccccc2c(=O)[nH]1)Nc1ccccc1Cl	u	-24%	9	1%
Cc1ccc(C(=O)NCC(=O)NCC(=O)OCc2ccc(Oc3ccc([N+](=O)[O-])cc3)cc2)cc1	3.1%	1%	x	x
CCOC(=O)c1ccc(Oc2nc(N(C)C)nc(N3CCOCC3)n2)cc1	2.2%	21%	7	-1%
Cc1cc(C)c(S(=O)(=O)c2ccccc2C)c(Oc2ccccc2)n1	0.6%	3%	-10	1%
Cc1ccccc1C(=O)N1CCC(C(=O)NC2CCCCCC2)CC1	-0.8%	-1%	x	-2%
CCN(CC)C(=O)C1=C(C)NC(=S)NC1c1ccc(C)s1 (configuration not stated)	-4.8%	-8%	-1	-1%
O=c1c2ccccc2oc2c1ccc1ccccc12	-1.2%	-23%	x	x
CN(C)Cc1c(C(=O)N/N=C/c2ccc(OCc3c(F)cccc3Cl)cc2)nnn1-c1nonc1N	-4.3%	0%	x	-10%
COc1ccc(C(=O)O/N=C(\N)c2ccncc2)cc1OC	-1.8%	-19%	2	-48%
Cc1ccc(C)c(N2CCN(C(=O)c3ccc4nsnc4c3)CC2)c1	4.8%	-2%	x	25%
CC1CCC(NC(=O)COC(=O)c2cccnc2Cl)CC1 (configuration not stated)	-4.0%	-12%	x	x
O=C(COC(=O)C1(c2ccccc2F)CCCC1)Nc1ncc(C(F)(F)F)cc1Cl	-3.5%	10%	-11	-7%
O=C(O)CC(NC(=O)C(c1ccccc1)c1ccccc1)c1cccc([N+](=O)[O-])c1 (configuration not stated)	2.6%	4%	-13	1%
O=C(CSc1nc2[nH]ncc2c(=O)n1-c1ccccc1Br)NCc1ccccc1Cl	0.6%	-15%	-6	-8%
CC(C)(CO)CNC(=O)c1ccc(OC2CCN(C(=O)C3CC3)CC2)cc1	0.1%	u	4	-1%

Following part.
SMILES	Rango-impB inh	Rango release inh	GLA inh pH 4.5	miR-21 reporter
Cc1csc2c(N3CCN(C(=O)NC(C)(C)C)CC3)ncnc12	1.1%	0%	-4	10%
Cc1ccc(-n2ncc3c(=O)[nH]c(SCC(=O)N4CCC(C)CC4)nc32)cc1C	0.5%	7%	7	-2%
C/C(=N\OC(=O)c1ccccc1F)c1nccs1	0.3%	u	-8	1%
CC[C@]12c3[nH]c4ccc(Cl)cc4c3CCN1C(=O)[C@@H](CC(=O)NCc1ccc(OC)c(OC)c1)C[C@@H]2C(=O)N1CCN(C(=O)C2CC2)CC1	-3.6%	-14%	x	x

Bioassay records deposited in PubChem by National Center for Advancing Translational Sciences (NCATS).

This is a subset. The share of hits here may be higher or lower than overall.
